# VACV Venus inh = vaccinia inhibition (Venus reporter). Vaccinia virus Venus reporter expression, fluorescence. Potency, µM (doses to about 36.5 µM), inactives show top-dose activity change, negative = inhibition, actives largely listed as inhibitors. hit rate 0.46% among 330,000; active means well fitted inhibition curve with a large enough effect; inconclusive means small, poorly fitted or top-dose-only effect; inactive means no such curve, though single readings can be large or run the other way; tested in A549 cells; note: nearly all actives have a fitted effect of over 30% in size; inactives centre near -10
# VACV mCherry inh = inhibitors of vaccinia virus infection (mCherry reporter signal); Potency, µM (series often up to 36.5 µM), inactives show at the top dose activity change, negative = inhibition, usual class: inhibitors; Vaccinia virus mCherry reporter infection, fluorescence; about a quarter of the inactives have no number; hit rate 0.63% among 310,000; active = well fitted inhibition curve with a large enough effect; inconclusive = small, poorly fitted or top-dose-only effect; inactive = no such curve, though single readings can be large or run the other way; tested in A549 cells; note: nearly all actives have a fitted effect of over 35% in size; inactives centre near -10
# Active calls of the source: *; i = inactive; ? = inconclusive; / = no result given; & = joins results of further samples; [ ] = dose if it differs, or a comment. % is set by controls: 0 for no effect and ±100 for the full control effect; potency is the fitted concentration of half-maximal effect.
SMILES,VACV Venus inh,VACV mCherry inh
CCOc1ccc(CNC(=O)Cn2nc(C)c3sc4ccccc4c3c2=O)cc1,-3%,-16%
COCC(=O)NCc1ccc2c(c1)OCO2,-8%,-8%
CCC1(CC)NC(=O)N(CC(=O)OC(C)C(=O)Nc2cc([N+](=O)[O-])ccc2OC)C1=O (stereo not drawn),?,-3%
COc1cc(OC)c(-c2sc(Nc3ccccc3)n[n+]2-c2ccc(F)cc2)cc1OC,-13%,i
COC(=O)C[C@@H]1CC[C@H](NC(=O)c2ccccc2)[C@@H](CO)O1,-6%,-5%
O=C(NCCNC(=O)c1cc(Cl)ccc1Cl)c1ccco1,0%,-7%
C[C@H]1CN([C@@H](C)CO)C(=O)c2cc(Br)cnc2O[C@@H]1CN(C)C(=O)Nc1ccc(C(F)(F)F)cc1,-9%,-11%
Cc1cc(NC(=O)CSc2nnc3c(C)cc4ccccc4n23)no1,1%,-14%
O=C(O)c1ccc2c(=O)n3c(nc2c1)/C(=C/c1ccc(F)cc1)CC3,-9%,i
CCN(CC)S(=O)(=O)c1ccc(C(=O)Nc2ccc(OCC(=O)N3CCOCC3)cc2)cc1,-17%,-19%
CS(=O)(=O)c1ccc(Cl)c(NC(=O)c2cccc(-n3cnnn3)c2)c1,-10%,i
CC(C)(CNC(=O)c1cc(-c2ccc(Cl)s2)nc2ccccc12)N1CCOCC1,5%,i
COc1ccc(Nc2ncnc3ccc([N+](=O)[O-])cc23)c(OC)c1,-24%,-12%
COc1ccc(N(C)C(=O)c2cn(CC(C)C)c(=O)c3cc(OC)c(OC)cc23)cc1,-6%,-3%
COc1ccc(S(=O)(=O)NC(C)C(=O)NCc2cccnc2)cc1Cl (stereo not drawn),4%,i
COc1ccccc1C(=O)Nc1ccc(OCc2cc(=O)n3ccc(C)cc3n2)cc1,-7%,-15%
COc1ccc(/C=N/NC(=O)c2ccoc2C)cc1COc1ccc(Cl)cc1,-38%,?
Cc1cc(C)cc(OCC(=O)NNC(=O)c2cc(C)[nH]n2)c1,20%,6%
COC(=O)c1ccc(OCC(O)CN2C(=O)c3ccccc3S2(=O)=O)cc1 (stereo not drawn),-21%,-14%
O=C(COC(=O)/C=C/c1cccs1)NC(c1ccccc1)c1ccccc1,-19%,i
Cc1ccc(C)n1-c1c(C(=O)NCC(C)c2ccccc2)sc2ncccc12 (stereo not drawn),-18%,-13%
Cc1nc2ccc(C(=O)Nc3cccc(NS(C)(=O)=O)c3)cn2c1N(C)C(=O)CCc1ccccc1,-7%,1%
O=C(O)CC1=C(c2ccc(F)cc2)CCC1=O,-7%,-10%
CC(C)CC1Nc2ncnc(N3CCN(c4ccccn4)CC3)c2N(Cc2ccc(Cl)cc2)C1=O (stereo not drawn),?,-11%&-3%
O=S1(=O)N[C@@H](Cc2ccccc2)COc2ccc(Cl)cc21,-10%,-2%
SMILES,VACV Venus inh,VACV mCherry inh
c1ccc(CCC2CCCCN2Cc2nc(C3CC3)no2)cc1 (stereo not drawn),-7%,-12%
Cc1ccccc1OCCCCn1c(CCNC(=O)C(C)(C)C)nc2ccccc21,-22%,-13%
C=CCN1CCc2cc(O)c(O)cc2C(c2ccccc2)C1 (stereo not drawn),-16%,-20%
CCCCn1nc(C(=O)Oc2ccc3c(C)cc(=O)oc3c2)c2ccccc2c1=O,1%,-11%
COc1cc(C2C3=C(COC3=O)Oc3cc4c(cc32)OCO4)cc(OC)c1OC (stereo not drawn),?,?
Cc1ccccc1NC(=O)CSc1ccncc1,-1%,-20%
CC1=C(C(=O)OCC(C)C)C2(O)C(=O)c3ccccc3C2(O)N1 (stereo not drawn),-4%,-13%
Cc1cc(NC(=O)c2ccc([N+](=O)[O-])cc2Cl)ccc1NC(=O)c1ccco1,-4%,-14%
CC(C(=O)Nc1cc(C(F)(F)F)ccc1N1CCOCC1)N1C(=O)C2CC=CCC2C1=O (stereo not drawn),-10%,i
O=C(C[C@@H]1C[C@@H]2c3cc(NS(=O)(=O)c4ccc(F)cc4)ccc3O[C@@H]2[C@@H](CO)O1)NC1CCCCC1,-12%,-6%
COc1cc2nc(C#Cc3nc4cc(OC)c(OC)cc4[nH]3)[nH]c2cc1OC,-9%,i
CC(C)C[C@@H](CNCC(=O)[C@H](CC(=O)O)NC(=O)c1[nH]cnc1C(=O)N[C@H](CN)CC(C)C)NC(=O)c1nc[nH]c1C(=O)N[C@@H](C)C(=O)O,1%,-12%
Nc1cc(-c2cccc(F)c2)nn1S(=O)(=O)c1cccc2nsnc12,?,i
O=C(COc1ccc(Cl)cc1)N1CCN(S(=O)(=O)c2cc(F)ccc2F)CC1,-28%,i
O=[N+]([O-])c1ccccc1/C=C/c1ccc2ccccc2n1,-11%,-16%
Cc1ccc(N2C(=O)CC(Nc3cccc4ccccc34)C2=O)cc1 (stereo not drawn),-8%,-10%
CCN(CC)C(=O)c1ccc(CS(=O)(=O)c2ccc(Br)cc2)cc1,-24%,-5%
CCCOc1ccc(C2NC(=S)NC(c3ccccc3)=C2C(=O)Nc2ccc(C)cc2)cc1OC (stereo not drawn),-23%,-10%
COc1ccc(OCC(=O)Nc2ccc(S(=O)(=O)N3CCCCCC3)cc2)cc1,-30%,/
CC1COCC(C)N1C1=C(Cl)C(=O)c2ccccc2C1=O (stereo not drawn),-2%,-7%
Cc1cc(C)c(C(=O)Cn2nc(C(=O)O)c3ccccc3c2=O)cc1C,-22%,-16%
OCC1OC(n2cnc3cc(Cl)c(Cl)cc32)C(O)C1O (stereo not drawn),-22%&-21%,-2%&12%
CCOC(=O)Nc1ccc2c(c1)Sc1ccccc1N2C(=O)CCN1CCOCC1,-23%,/
COc1cccc(C2CC(=O)Nc3cc4c(cc32)OCCO4)c1OC (stereo not drawn),-7%[7.34 µM],-15%[7.34 µM]
CC(C)(C)NC[C@@H](O)COc1nsnc1N1CCOCC1,-19%,i

# Taken from the listing (15 entries):
SMILES,VACV Venus inh,VACV mCherry inh
c1ccc(CCC2CCCCN2Cc2nc(C3CC3)no2)cc1 (stereo not drawn),-7%,-12%
Cc1ccccc1OCCCCn1c(CCNC(=O)C(C)(C)C)nc2ccccc21,-22%,-13%
C=CCN1CCc2cc(O)c(O)cc2C(c2ccccc2)C1 (stereo not drawn),-16%,-20%
CCCCn1nc(C(=O)Oc2ccc3c(C)cc(=O)oc3c2)c2ccccc2c1=O,1%,-11%
COc1cc(C2C3=C(COC3=O)Oc3cc4c(cc32)OCO4)cc(OC)c1OC (stereo not drawn),?,?
Cc1ccccc1NC(=O)CSc1ccncc1,-1%,-20%
CC1=C(C(=O)OCC(C)C)C2(O)C(=O)c3ccccc3C2(O)N1 (stereo not drawn),-4%,-13%
Cc1cc(NC(=O)c2ccc([N+](=O)[O-])cc2Cl)ccc1NC(=O)c1ccco1,-4%,-14%
CC(C(=O)Nc1cc(C(F)(F)F)ccc1N1CCOCC1)N1C(=O)C2CC=CCC2C1=O (stereo not drawn),-10%,i
O=C(C[C@@H]1C[C@@H]2c3cc(NS(=O)(=O)c4ccc(F)cc4)ccc3O[C@@H]2[C@@H](CO)O1)NC1CCCCC1,-12%,-6%
COc1cc2nc(C#Cc3nc4cc(OC)c(OC)cc4[nH]3)[nH]c2cc1OC,-9%,i
CC(C)C[C@@H](CNCC(=O)[C@H](CC(=O)O)NC(=O)c1[nH]cnc1C(=O)N[C@H](CN)CC(C)C)NC(=O)c1nc[nH]c1C(=O)N[C@@H](C)C(=O)O,1%,-12%
Nc1cc(-c2cccc(F)c2)nn1S(=O)(=O)c1cccc2nsnc12,?,i
O=C(COc1ccc(Cl)cc1)N1CCN(S(=O)(=O)c2cc(F)ccc2F)CC1,-28%,i
O=[N+]([O-])c1ccccc1/C=C/c1ccc2ccccc2n1,-11%,-16%

# The list goes on:
SMILES,VACV Venus inh,VACV mCherry inh
COc1ccc(-c2nc3ccccc3o2)cc1NC(=O)c1ccc(-c2ccc(Br)cc2)o1,-2%,-10%
CC1CC(C)CN(S(=O)(=O)c2ccc(C(=O)OCC(=O)Nc3ccccc3)cc2)C1 (stereo not drawn),-4%,i
c1ccc2c(c1)sc1nnnn12,-19%,-26%
CCOc1ccc(Cl)cc1-c1cc(C(=O)NC2CCCCC2)[nH]n1,-12%,-11%
COc1cccc(Cc2nc3cccnc3n2C2CCN(Cc3ccc(C)s3)CC2)c1,-6%,-12%
CC(=O)Nc1ccc(S(=O)(=O)N2CCC(C(=O)c3ccc(F)cc3)CC2)cc1,-14%,3%
Cc1ccc(S(=O)(=O)CCNC(=O)Cc2ccccc2)cc1,2%,3%
Cc1cc(C(=O)NC2CCCCC2)c(C)n1-c1ccc(F)cc1,-6%,-1%
COc1ccccc1/C=C\C(=O)NCC(=O)N/N=C/c1ccc(O)cc1O,2%,-13%
CCNC(=O)C1(C)CCCN(Cc2ccccc2-c2ccccc2)C1 (stereo not drawn),13%,i
CCCOc1ccc(-c2c(C(=O)N/N=C/c3ccc(C)cc3)nnn2-c2nonc2N)cc1,11%,-2%
CCOc1ccc(C(=O)Nc2ccc(S(=O)(=O)Nc3cc(C)on3)cc2)cc1,-8%,-9%
COc1ccccc1N(CC(=O)NCc1ccccc1)S(=O)(=O)c1cccs1,-14%,-2%
CCOC(=O)c1ccc(NC(=S)N(CCCN2CCCC(C)C2)Cc2ccco2)cc1 (stereo not drawn),-19%,i
COC(=O)c1c(Oc2ccc(OC)cc2)nnc(-c2ccccc2)c1-c1ccccc1,-11%,-15%
CCn1c(O)c(N=NC(=O)C2C(=O)NCC2c2ccccc2)c2ccccc21 (stereo not drawn),-3%,-18%
CC1CCCN(C(=O)Cc2cccc3ccccc23)C1 (stereo not drawn),-8%,i
CC1=CC(C)(C)n2c(O)c(C3=NC(=S)NC3=O)c3cc(OC(=O)c4cccc5ccccc45)cc1c32,0%,-13%
Cc1cccc(S(=O)(=O)NCCC(=O)OC(C)C(=O)NC(=O)NC2CCCCC2)c1 (stereo not drawn),-10%,/
COc1ccc(C)cc1NS(=O)(=O)c1cn(C)nc1C,-4%,-5%
O=C(CCS(=O)(=O)c1ccccc1)NC1CCCC1,-20%,-15%
COc1ccc(-c2ccc(CN3C(CC(C)C)C(=O)N(Cc4cn(CC5CCCCC5)nn4)CCS3(=O)=O)cc2)cc1 (stereo not drawn),?,-17%
CC1(C(=O)NCc2ccc(Cl)cc2)CCN1C(=O)c1cccc(F)c1 (stereo not drawn),-13%,-15%
COCc1cc(=O)[nH]c(N2CCN(c3ccccc3OC)CC2)n1,-3%,i
C=CCOc1ccc(CNc2ccc(NC(=O)CC(C)C)cc2)cc1OC,-15%,-25%
SMILES,VACV Venus inh,VACV mCherry inh
CC1=NN(C(N)=S)C(=O)C1N=Nc1ccccc1C (stereo not drawn),-24%,-29%
CCOC(=O)c1ccc(NC(=O)c2nc(S(=O)(=O)Cc3ccccc3)ncc2Cl)cc1,?,?
O=C(COC(=O)/C=C/c1ccc([N+](=O)[O-])cc1)NCc1ccccc1,-5%,-6%
O=C(c1ccc(F)cc1)N1CCCCC(Sc2nnnn2-c2ccccc2)C1=O (stereo not drawn),-9%,/
Cc1ccc(C)c(-c2nnc(NC(=O)c3ccc([N+](=O)[O-])o3)o2)c1,?,?
CC(C)(C)C(=O)Nc1cccc(C(=O)OCc2cc(=O)n3nc(C4CC4)sc3n2)c1,-10%,-14%
NC(N)=NS(=O)(=O)c1ccc(NC(=S)NC(=O)/C=C/c2cccs2)cc1,-7%,i
CCN(CC)CCn1c2c(c(SCC(=O)Nc3cc(C)ccc3C)nc1=O)CCC2,-19%,-2%
O=C(COC(=O)Cc1ccc(S(=O)(=O)N2CCOCC2)s1)Nc1ccc(F)cc1F,0%,-13%
CCCCOc1ccc(CNC(=O)CN2CCSc3ccccc32)cc1,1%,4%
Cc1cc(Br)c2c(c1)[C@](O)(c1cn(C)c3ccccc13)C(=O)N2C,-19%,i
COc1ccc(CNC(=O)c2[nH]c(C)c(C(C)=O)c2C)cc1,4%,-12%
CCOc1cc2[nH]c(=O)n(CCCN3CCN(c4ccc(OC)cc4)CC3)c(=O)c2cc1OCC,-10%,-5%
O=C(O)C[C@H]1c2cc(C(F)(F)F)ccc2S(=O)(=O)N1C1CCCC1,-6%&-15%,-11%&-11%
Cc1ccc2nc(-c3ccc(NC(=O)COc4ccc(Br)cc4Br)cc3)sc2c1,-24%,-25%
CN(C)C1=NC[C@H](Cc2ccccc2)N1CCc1cccc(F)c1,-11%,-20%
CCOC(=O)CCC(NC(=O)CCCC(=O)NC(CCC(=O)OCC)C(=O)OCC)C(=O)OCC (stereo not drawn),-4%,-16%
O=C1CN(C(=O)COC(=O)c2ccc(Cl)cc2)c2ccccc2N1,-19%,-6%
O=C(NCCOc1ccccc1F)c1ccccc1SCc1ccc(F)cc1,-5%,-18%
c1ccc(CN2CCc3[nH]c4ccccc4c3C2)cc1,-5%,-27%
CN(Cc1ccco1)S(=O)(=O)c1nnc(NC(=O)c2cccc(Cl)c2)s1,-8%,-9%
C=CCOc1ccccc1CNc1ccccc1C,0%,-10%
C[C@H]1COC(=O)[C@H](CC(=O)OC(C)(C)C)C/C=C\C[C@@H](CC(=O)N[C@H](CO)Cc2ccccc2)C(=O)N1,-7%,i
CCSc1nnc(-c2ccc(S(=O)(=O)N3CCCC3)cc2)n1C,-11%,-11%
CCCCN1C(=O)CN(C2CCCCC2)C(=O)C1c1ccc(OC(C)C)c(OC)c1 (stereo not drawn),-7%,-12%
COc1ccc(CCN=C(C)c2cc(C)c(C)cc2O)cc1OC,10%,-10%

# Screening results from PubChem.

# The order is random; any-hit rate near 0.82%.
